VACV Venus inh = qHTS for Stage-Specific Inhibitors of Vaccinia Orthopoxvirus: Venus Reporter Primary qHTS | Vaccinia virus Venus reporter expression, fluorescence | Potency, µM (top dose mostly 36.5 µM), without a hit: at the top dose activity change, negative = inhibition, hits mostly inhibitors | 330,000 tested, 0.46% active | AID 720580, 2013; active means well fitted inhibition curve with a large enough effect; inconclusive means small, poorly fitted or top-dose-only effect; inactive means no such curve, though single readings can be large or run the other way; tested in A549 cells; further: nearly all actives have a fitted effect of over 30% in size; inactives centre near -10
VACV mCherry inh = qHTS for Stage-Specific Inhibitors of Vaccinia Orthopoxvirus: mCherry Reporter Primary qHTS. Potency, µM (doses to about 36.5 µM), inactives show top-dose activity change, negative = inhibition, actives largely listed as inhibitors. 310,000 tested, 0.63% active. Vaccinia virus mCherry reporter infection, fluorescence; about a quarter of the inactives have no number; active = well fitted inhibition curve with a large enough effect; inconclusive = small, poorly fitted or top-dose-only effect; inactive = no such curve, though single readings can be large or run the other way; tested in A549 cells; further: nearly all actives have a fitted effect of over 35% in size; inactives centre near -10
* marks the source's active call; other numbers are inactive results; i = inactive; ? = inconclusive; . = no result given; [ ] = remark or other dose. On the % scale 0 is the no-effect control and ±100 the full control effect; potency means the concentration at half of the fitted maximal effect.

SMILES	VACV Venus inh	VACV mCherry inh
Cc1c(C(=O)N(C)Cc2cccc3ncccc23)cnn1-c1nccc(-c2ccccc2F)n1	-14%	i
Nc1ncnc2c1nc(Sc1ccc(Cl)cc1)n2[C@@H]1O[C@@H]2COP(=O)(O)O[C@H]2[C@H]1O	-19%	i
Cc1[nH]n(C(N)=S)c(=O)c1N=Nc1cc(C(F)(F)F)ccc1Cl	-9%	-15%
O=C(NCc1ccc(C(=O)O)cc1)OCc1ccccc1	-8%	i
Cc1nonc1-c1ccc2c(c1)OCO2	-1%	i
CCOC(=O)C(c1ccccc1)N1CCN(c2ccc(OC)cc2)CC1 (configuration not stated)	-11%	-18%
O=S(=O)(c1ccc(Br)cc1)N1CCCN(Cc2ccccc2F)CC1	-14%	-15%
COc1ccc(C(=O)Nc2cnc(NC(=O)c3cccs3)cc2C)cc1	-13%	-10%
CCOC(=O)c1c(C)n(CC)c2ccc(OC(=O)c3ccc([N+](=O)[O-])cc3)cc12	-7%	-25%
CN(C)C(=O)c1ccc(-c2cc(C(F)(F)F)n(C)n2)s1	-22%	i
Cc1ccc(C2(c3ccc(C)cc3)NC(=O)N(CC(N)=O)C2=O)cc1	-9%	-7%
CC(C)c1cc(-c2nc(-c3ccccc3)no2)n[nH]1	-11%	-3%
O=C(NC1CCCC1)C(c1ccncc1)N(CCCN1CCOCC1)C(=O)c1ccc(-c2ccccc2)[nH]1 (configuration not stated)	-17%	i
Cc1cc(NC(=O)c2ccccc2-c2ccccc2C(=O)O)no1	-9%	-9%
CCN(CC)C(=O)CSc1nnc(-c2ccco2)o1	0%	-8%
Cc1c(CCC(=O)NC2CC2)c(=O)oc2cc(O)ccc12	-5%	-2%
O=C(Cn1nc(-c2ccc(Cl)cc2)ccc1=O)NCc1ccc2c(c1)OCO2	-19%	-17%
CC(C)=CCC/C(C)=C/CNC(=O)C[C@H]1C[C@H](C(=O)N2CCOCC2)[C@@]2(CCC3CCCC3)c3[nH]c4cc(CCC(=O)N(C)C)ccc4c3CCN2C1=O	?	?
O=C(Cn1cccn1)N1CCCC(Nc2ccc(F)c(F)c2)C1 (configuration not stated)	-8%	i
Cc1ccc(Cl)cc1NC(=O)Nc1nnc(N(C)Cc2ccccc2)s1	-22%	-28%
O=C(Nc1cccc(C(=O)O)c1)/C(=C\c1ccc(F)cc1)NC(=O)c1ccco1	-4%	4%
O=C(Nc1ccc(N2CCC(N3CCCCC3)CC2)c(C(=O)O)c1)c1ccccc1	-2%	-4%
Cn1nc(C(F)(F)F)c2cc(C(=O)Nc3ccc(F)cc3F)sc21	?	-12%[1.46 µM]
O=S(=O)(c1ccc(Br)cc1)n1c(Cc2ccccc2)nc2ccccc21	3%	-14%
Cc1csc2nc(CCNS(=O)(=O)c3cccs3)cn12	-10%	7%
SMILES	VACV Venus inh	VACV mCherry inh
CC[N+]1=CN(c2ccccc2)C(C)=CC1(C)C	-17%	-19%
COc1ccc(S(=O)(=O)N2CCC(C(=O)NC3CC3)CC2)cc1Cl	-25%	.
Cc1cc(NC(=O)c2cnn3c(C(F)(F)F)cc(-c4ccc(Br)cc4)nc23)no1	-12%	-17%
COc1ccc(CCNC(=O)c2ccccc2C(=O)NCCc2ccc(OC)c(OC)c2)cc1OC	-7%	-11%
O=C(CCN1CCCO1)N1CCCC(Nc2cccc(F)c2)C1 (configuration not stated)	-3%	i
CCc1ncc(CN2CCCC(C(=O)Nc3cccc(-c4cccc(C)c4)c3)C2)cn1 (configuration not stated)	?	?
O=C(NCC(c1ccco1)N1CCc2ccccc2C1)c1ccc(F)cc1 (configuration not stated)	-14%	-6%
CN(C)C(CNC(=O)CCNC(=O)c1ccc(Br)cc1)c1ccco1 (configuration not stated)	3%	-11%
CCCCC(C(=O)N/N=C/c1ccccn1)C(=O)N/N=C/c1ccccn1	6%	-7%
CCCC(=O)N1CCCC(c2cc(C(=O)Nc3ccccc3)no2)C1 (configuration not stated)	-7%	-3%
O=C(Nc1cc(C(=O)N2CCN(c3ccccc3)CC2)ccc1Cl)c1cccs1	-15%	-27%
CCOC(=O)c1cccc(NC(=O)C2(S(=O)(=O)c3ccc(Cl)cc3)CC2)c1	-20%	-24%
CC1CC(C)CN(CCC(=O)Nc2ccc(Br)cc2)C1 (configuration not stated)	-23%	-11%
COC(=O)c1ccc(N2CCN(C)CC2)c(NC(=O)c2cccs2)c1	14%	-11%
O=C(CC1CCCCC1)NC1CCCC1	?	i
CCN1CCc2c(sc(-n3cccc3)c2C(C)NC(=O)Nc2cc(Cl)c(OC)cc2OC)C1 (configuration not stated)	-6%	-10%
CCOc1ccc(/C(O)=C2\C(=O)C(=O)N(CCN(C)C)C2c2cc(OC)ccc2OC)cc1Cl (configuration not stated)	-3%	-3%
O=S1(=O)CC(N2CCSCC2)CN1Cc1cn(Cc2cccc(C(F)(F)F)c2)nn1 (configuration not stated)	-7%	16%
CCCCOc1ccc(C(=O)N/C(=C\c2cccc([N+](=O)[O-])c2)C(=O)OCCC)cc1	0%	i
N#Cc1ccc(-c2csc(NC(=O)/C=C/c3cccs3)n2)cc1	-22%	-21%
O=C(COC(=O)c1ccc(Cl)nc1)Nc1ccc(S(=O)(=O)N2CCCC2)cc1	-6%	i
O=C(CSc1nc(=O)n2cc(Cl)ccc2n1)Nc1ccc2c(c1)OCCO2	-3%	i
Cc1ccc(-n2c(C)c3c(C)nnc(C)c3c2C)cc1N	3%	i
CCOC(=O)c1c(C)c(C(=O)NCc2ccc3c(c2)OCO3)c(C)n1CC	-6%	-13%
CN(CCN1CCc2ccccc2C1)Cc1nc(Cc2ccccc2F)no1	1%	0%
SMILES	VACV Venus inh	VACV mCherry inh
CCOc1ccc(C(C)=O)cc1COC(=O)CN1C(=O)NC2(CCCC2)C1=O	-6%	i
CCN=C1SC(C(=O)Nc2ccc(OC)cc2)CC(=O)N1CC (configuration not stated)	-15%	-16%
Cc1ccc(C2=NN(C(=O)CSc3nccn3C)C(c3ccco3)C2)cc1 (configuration not stated)	-18%	-28%
CC(C)Sc1nc2c(c(=O)[nH]c(=O)n2C)n1Cc1ccc(Cl)cc1	-12%	.
O=C1NC(=S)N(c2ccccc2)C(=O)/C1=C/c1ccco1	30%	i
Cc1c2ccccc2nc2ccccc12	-2%	-8%
COc1ccc(C(=O)CSc2nn3c(=O)c(C(C)(C)C)nnc3s2)cc1	-3%	.
O=C(C1CCCN(S(=O)(=O)c2cccc3nsnc23)C1)N1CCN(c2cccc(Cl)c2)CC1 (configuration not stated)	-27%	?
COc1ccc(-c2onc(C)c2C)cc1S(=O)(=O)Nc1cc(Cl)ccc1C	?	-4%
Cc1ccc(OCCCN2C(=O)C(=O)c3cccc(C)c32)cc1	-14%	-5%[1.46 µM]
COC(=O)C1=C(C(=O)OC)C(C(=O)OC)C(C(=O)OC)C(C(=O)OC)(C(=O)OC)C(C(=O)OC)=C1C(=O)OC (configuration not stated)	?	?
O=S(=O)(N1CCCCCC1)N1CCN(S(=O)(=O)N2CCOCC2)CC1	-11%	.
Cc1ccc2c(=O)[nH]c(Nc3nc(C)cc(-c4ccccc4)n3)nc2c1	-26%	-10%
Cc1csc2nc(CNS(=O)(=O)c3ccc4c(c3)OCCO4)cn12	1%	-15%
COc1cccc(C(=O)NC2=NC(c3ccccc3F)CC(=O)N2)c1 (configuration not stated)	-5%	-3%
COc1cc(/C=N/NC(=S)NCCN2CCOCC2)cc(OC)c1O	-17%	-22%
COc1ccccc1NP1(=O)OCC(C)([N+](=O)[O-])CO1 (configuration not stated)	-13%	0%
CCOc1cccc(C(=O)NC(=S)Nc2ccc3c(c2)OCCO3)c1	-1%	-12%
COC(=O)c1cc(COC(=O)c2ccc3ccccc3n2)oc1C	-11%	-12%
Cc1ccc(NC(=O)CN2C(=O)COc3ccc(S(=O)(=O)NC4CCCC4)cc32)cc1Cl	-7%	-11%
O=C(CSc1ncn[nH]1)NCc1ccccc1Cl	-9%	-2%
C#CC(C)(CC)NC(=O)c1cc2c(n(-c3ccc(Cl)cc3)c1=O)CC(C)(C)CC2=O (configuration not stated)	-12%	-1%
N#CCC(=O)Nc1ccc(C(=O)OCC(=O)Nc2cc(-c3ccccc3)nn2-c2ccccc2)cc1	-13%	-23%
CCOC(=O)C1CCCN(c2ncnc3c2cnn3-c2ccc(C)c(Cl)c2)C1 (configuration not stated)	-4%	-1%
CN(C)Cc1ccccc1-c1ccc2ncnc(NCc3cccs3)c2c1	0%	i
SMILES	VACV Venus inh	VACV mCherry inh
Cc1cccc(NC(=O)Cc2ccc(NC3=NC4CS(=O)(=O)CC4S3)cc2)c1 (configuration not stated)	-3%	i
Cc1cc(C)cc(N(CCC(=O)O)S(=O)(=O)c2ccc(Cl)cc2)c1	-5%	-12%
COc1ccc(OCc2ccc(-c3nc(C#N)c(NCc4cccnc4)o3)o2)cc1	-1%	-2%
COc1ccccc1N1CCN(C(=O)C(C)NC(=O)c2cccc([N+](=O)[O-])c2)CC1 (configuration not stated)	-26%	?
O=C(Nc1ccc(S(=O)(=O)N2CCOCC2)cc1)c1ccc(CN2CCc3ccccc3C2)cc1	?	.
NS(=O)(=O)c1ccc(CCNC(=S)NC2CCCC2)cc1	-8%	-2%
C=CCSc1nnc(NC(=O)C2=COCCO2)s1	-14%	i
O=C(Nc1ccc(F)cc1)N1CCN(c2ccc3nnc(-c4ccc(F)cc4)n3n2)CC1	?	?
COC(=O)/C=C1\OCc2c(F)cccc21	-15%	-10%
N#Cc1cccc(NC(=O)c2cc(C3CCCCN3C(=O)c3ccc4c(c3)CCO4)on2)c1 (configuration not stated)	5%	-2%
CSc1nc2ccc(S(N)(=O)=O)cc2s1	-7%	-8%
COc1cccc(C(=O)OCC(=O)NC23CC4CC(CC(C4)C2)C3)c1	0%	-10%
C=CC[C@@H](CC(=O)NCCO)C(=O)N[C@H](COC(=O)[C@@H](CC=C)Cc1ccc(F)cc1)Cc1c[nH]c2ccccc12	-3%	-3%
CCOc1ccc(-n2c(SCc3nc(-c4cccs4)no3)nnc2-c2ccncc2)cc1	-19%	-16%
C/C=C/C(=O)Nc1cccc(C2=NOC3(C2)C[C@@H](C(N)=O)N(C(=O)/C(C)=C/C)C3)c1 (some centres not stated)	-8%	i
O=C(NCC(c1cccnc1)N1CCN(c2ccc(F)cc2)CC1)c1ccccc1 (configuration not stated)	-14%	.
CC(=O)NC(C)CCc1ccccc1 (configuration not stated)	-20%	i
Fc1ccccc1SCc1nnc(-c2ccccc2Br)o1	-1%	-9%
O=C(CCN=C1NS(=O)(=O)c2ccccc21)OCc1ccccc1	0%	-8%
Cc1csc2c(=O)[nH]cnc12	-6%	1%
Cc1noc(-c2ccccc2)c1NC(=O)Nc1ccc2nc([C@H]3C[C@H](O)[C@@H](CO)O3)[nH]c2c1	3%	21%
COc1ccc(CNC(=O)COC(=O)CCOc2ccccc2)cc1	-3%	-1%
CN(CC(=O)Nc1ccc(F)cc1)C(=O)COc1ccccc1Cc1ccccc1	?	-20%
O=c1c2cnn(-c3ccccc3)c2nc(-c2cccs2)n1-c1ccc(Br)cc1	-9%	.
N=c1c(C(=O)NC2CCCC2)cc2c(=O)n3ccccc3nc2n1CCN1CCOCC1	-21%	-14%

Some of the entries so far, comma-delimited:
structure,VACV Venus inh,VACV mCherry inh
COc1cccc(C(=O)OCC(=O)NC23CC4CC(CC(C4)C2)C3)c1,0%,-10%
C=CC[C@@H](CC(=O)NCCO)C(=O)N[C@H](COC(=O)[C@@H](CC=C)Cc1ccc(F)cc1)Cc1c[nH]c2ccccc12,-3%,-3%
CCOc1ccc(-n2c(SCc3nc(-c4cccs4)no3)nnc2-c2ccncc2)cc1,-19%,-16%
C/C=C/C(=O)Nc1cccc(C2=NOC3(C2)C[C@@H](C(N)=O)N(C(=O)/C(C)=C/C)C3)c1 (some centres not stated),-8%,i
O=C(NCC(c1cccnc1)N1CCN(c2ccc(F)cc2)CC1)c1ccccc1 (configuration not stated),-14%,.
CC(=O)NC(C)CCc1ccccc1 (configuration not stated),-20%,i
Fc1ccccc1SCc1nnc(-c2ccccc2Br)o1,-1%,-9%
O=C(CCN=C1NS(=O)(=O)c2ccccc21)OCc1ccccc1,0%,-8%
Cc1csc2c(=O)[nH]cnc12,-6%,1%
Cc1noc(-c2ccccc2)c1NC(=O)Nc1ccc2nc([C@H]3C[C@H](O)[C@@H](CO)O3)[nH]c2c1,3%,21%
COc1ccc(CNC(=O)COC(=O)CCOc2ccccc2)cc1,-3%,-1%
CN(CC(=O)Nc1ccc(F)cc1)C(=O)COc1ccccc1Cc1ccccc1,?,-20%
O=c1c2cnn(-c3ccccc3)c2nc(-c2cccs2)n1-c1ccc(Br)cc1,-9%,.
N=c1c(C(=O)NC2CCCC2)cc2c(=O)n3ccccc3nc2n1CCN1CCOCC1,-21%,-14%

The results go on.
SMILES	VACV Venus inh	VACV mCherry inh
CCCCCC(NC(=O)C1CCN(C(=O)[C@@H](NS(=O)(=O)c2ccc(C)cc2)C(C)C)CC1)C(=O)O (some centres not stated)	6%	-6%
O=C(Oc1cccc(NC(=O)c2ccccc2Cl)c1)c1ccc([N+](=O)[O-])cc1	-10%	.
CSc1ccccc1NC(=O)c1ccc(Cl)s1	-8%	-14%
CCN(CC)C(=O)CSc1nnc2[nH]c(=O)cc(C)n12	-19%	-3%
CCOc1ccc(NS(=O)(=O)c2c(C)nc3sccn3c2=O)cc1	-17%	-12%
Cc1onc(-c2ccccc2Cl)c1C(=O)Nc1nnc(C(C)C)s1	-5%	7%
CC(=O)Nc1nnc(SCc2cccc(F)c2)s1	-14%	-12%
O=[N+]([O-])c1ccccc1S(=O)(=O)NCCC1=CCCCC1	-4%	-26%

Screening data as filed in PubChem.
